# Yeast UUG start: modulators of start codon recognition fidelity in yeast; activity score, % at 18.7 µM; S. cerevisiae UUG-firefly luciferase reporter, luminescence/redox ratio; hit rate 0.13% among 350,000; AID 602363;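 active = replicate mean at a twofold rise or more, about +100% in these data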;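 note: firefly luciferase made from a UUG start codon reports start codon fidelity; reporter light over untreated wells divided by growth signal over untreated wells; some hits fall short of that in this replicate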
# HIV Env fusion: inhibitors of HIV Env-mediated cell fusion; HeLa-JRFL Env/CEM21 cell fusion, luciferase; inhibition, % at 12.3 µM; hit rate 1.1% among 360,000; AID 651610;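 active = mean replicate inhibition score of at least 50 and every replicate individually at or above 50; inconclusive = only one of the two criteria met; inactive = mean below 50 and not all replicates reaching 50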;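 note: 0% = plate neutral controls and 100% = maraviroc near 300 nM; one replicate is shown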
# Active calls of the source: *; u = inconclusive; [ ] = remark or other dose. These rows are one share of the data; rates above refer to the full screens.
smiles	Yeast UUG start	HIV Env fusion
CCCC#Cc1ccc2c(c1)O[C@H](CN(C)C(=O)C1CCC1)[C@H](C)CN([C@H](C)CO)S2(=O)=O	-1	15[16.7 µM]
O=C(C[C@@H]1C[C@H]2c3cc(NC(=O)c4ccc5c(c4)OCO5)ccc3O[C@H]2[C@@H](CO)O1)NC1CCCC1	-15	7[16.7 µM]
CC(=O)N(C)C[C@H]1Oc2cc(-c3cncnc3)ccc2S(=O)(=O)N([C@@H](C)CO)C[C@@H]1C	23	9[16.7 µM]
C[C@@H]1CN([C@H](C)CO)C(=O)c2cccc(NS(=O)(=O)c3cn(C)cn3)c2O[C@@H]1CN(C)S(=O)(=O)c1cn(C)cn1	-9	-1[16.7 µM]
C[C@@H]1CN([C@@H](C)CO)C(=O)c2cc(NC(=O)Cc3ccccc3)ccc2O[C@@H]1CN(C)C(=O)NC1CCCCC1	17	-2[16.7 µM]
COc1ccc(NC(=O)N(C)C[C@@H]2Oc3ncc(C4=CCCC4)cc3C(=O)N([C@H](C)CO)C[C@H]2C)cc1	5	-9[16.7 µM]
C[C@@H]1CN([C@@H](C)CO)C(=O)c2cc(NC(=O)C3CC3)ccc2O[C@@H]1CN(C)Cc1ccc(Oc2ccccc2)cc1	-3	-22[16.7 µM]
COc1ccc(NC(=O)Nc2ccc3c(c2)C(=O)N([C@H](C)CO)C[C@H](C)[C@@H](CN(C)Cc2ccccc2)O3)cc1	-26	-7[16.7 µM]

# Pulled by structure from above, six records:
smiles	Yeast UUG start	HIV Env fusion
C[C@@H]1CN([C@@H](C)CO)C(=O)c2cc(NC(=O)Cc3ccccc3)ccc2O[C@@H]1CN(C)C(=O)NC1CCCCC1	17	-2[16.7 µM]
COc1ccc(NC(=O)Nc2ccc3c(c2)C(=O)N([C@H](C)CO)C[C@H](C)[C@@H](CN(C)Cc2ccccc2)O3)cc1	-26	-7[16.7 µM]
C[C@@H]1CN([C@@H](C)CO)C(=O)c2cc(NC(=O)C3CC3)ccc2O[C@@H]1CN(C)Cc1ccc(Oc2ccccc2)cc1	-3	-22[16.7 µM]
CC(=O)N(C)C[C@H]1Oc2cc(-c3cncnc3)ccc2S(=O)(=O)N([C@@H](C)CO)C[C@@H]1C	23	9[16.7 µM]
C[C@@H]1CN([C@H](C)CO)C(=O)c2cccc(NS(=O)(=O)c3cn(C)cn3)c2O[C@@H]1CN(C)S(=O)(=O)c1cn(C)cn1	-9	-1[16.7 µM]
O=C(C[C@@H]1C[C@H]2c3cc(NC(=O)c4ccc5c(c4)OCO5)ccc3O[C@H]2[C@@H](CO)O1)NC1CCCC1	-15	7[16.7 µM]

# Additional records follow.
smiles	Yeast UUG start	HIV Env fusion
COc1ccc(S(=O)(=O)Nc2ccc3c(c2)C(=O)N([C@@H](C)CO)C[C@H](C)[C@@H](CN(C)Cc2ccccc2)OCCCC[C@@H](C)O3)cc1	4	19[16.7 µM]
C[C@H]1CN([C@@H](C)CO)C(=O)c2cc(-c3ccccc3)cnc2O[C@H]1CN(C)C(=O)Nc1ccccc1	15	-22[16.7 µM]
CCCC(=O)Nc1ccc2c(c1)OC[C@@H](C)N(C(=O)c1ccncc1)C[C@H](C)[C@H](OC)CN(C)C2=O	6	2[16.7 µM]
CO[C@H]1CN(C)C(=O)c2cc(NS(C)(=O)=O)ccc2OC[C@@H](C)N(C(=O)CC2CC2)C[C@@H]1C	-9	6[16.7 µM]
C[C@@H]1CN([C@H](C)CO)C(=O)Cc2cc(NC(=O)CCN3CCOCC3)ccc2O[C@@H]1CN(C)C(=O)Nc1ccc(C(F)(F)F)cc1	3	-12[16.7 µM]
COc1cccc(C#Cc2ccc([C@@H]3[C@@H](C#N)N(C(=O)C4CC4)[C@@H]3CO)cc2)c1	2	0[16.7 µM]
O[C@@H](Cc1ccccc1)[C@@H](/C=C/C1CC1)N(CC#Cc1ccccc1)Cc1ccccc1Br	4	34[16.7 µM]
C[C@@H]1CN([C@H](C)CO)C(=O)Cc2cc(NC(=O)Cc3cn(C)c4ccccc34)ccc2O[C@H]1CN(C)Cc1ccc(C(F)(F)F)cc1	23	-17[16.7 µM]

smiles	Yeast UUG start	HIV Env fusion
C[C@H](CO)N1C[C@H](C)[C@H](CN(C)Cc2cncnc2)Oc2ncc(C#CC3CCCCC3)cc2C1=O	6	-20[16.7 µM]
C[C@@H]1CN([C@@H](C)CO)C(=O)c2cccc(NC(=O)Nc3ccccc3)c2O[C@H]1CN(C)Cc1ccccc1	20	-10[16.7 µM]
C[C@@H]1CCCCO[C@@H](CN(C)S(=O)(=O)c2ccc(Cl)cc2)[C@H](C)CN([C@@H](C)CO)C(=O)c2cc(NC(=O)Nc3cccc4ccccc34)ccc2O1	-5	8[16.7 µM]
C[C@@H]1CCCCO[C@H](CN(C)C(=O)C2CCCCC2)[C@@H](C)CN([C@H](C)CO)C(=O)c2cc(NC(=O)Nc3ccc4c(c3)OCO4)ccc2O1	-14	-31[16.7 µM]
C[C@@H]1CN([C@@H](C)CO)C(=O)c2cc(NC(=O)Cc3cn(C)c4ccccc34)ccc2O[C@H]1CN(C)C(=O)Nc1ccccc1	6	9[16.7 µM]
Cc1noc(C)c1S(=O)(=O)N(C)C[C@H]1Oc2ccc(NC(=O)Nc3ccc(C(F)(F)F)cc3)cc2CC(=O)N([C@@H](C)CO)C[C@H]1C	-7	-12[16.7 µM]
C[C@@H]1CN([C@@H](C)CO)C(=O)Cc2cc(NC(=O)Nc3ccc4c(c3)OCO4)ccc2O[C@@H]1CN(C)Cc1ccc(C(F)(F)F)cc1	-5	29[16.7 µM]
CC(C)NC(=O)Nc1ccc2c(c1)CC(=O)N([C@H](C)CO)C[C@@H](C)[C@H](CN(C)C(=O)Nc1cccc3ccccc13)O2	11	-5[16.7 µM]

smiles	Yeast UUG start	HIV Env fusion
Cc1nc(S(=O)(=O)NC2CCN(Cc3ccc(OCCO)cc3)CC2)cn1C	-1	-14[16.7 µM]
C[C@H]1CN([C@@H](C)CO)C(=O)c2cc(NS(=O)(=O)c3cn(C)cn3)ccc2O[C@H]1CN(C)C(=O)Nc1ccccc1	-10	-4[16.7 µM]
CO[C@H]1CN(C)C(=O)c2cc(NC(=O)c3ccc(F)cc3)ccc2OC[C@H](C)N(C(=O)CN(C)C)C[C@@H]1C	14	62*[16.7 µM]
C[C@H](CO)N1C[C@H](C)[C@H](CN(C)CC2CCCCC2)OCCCC[C@H](C)Oc2ccc(NC(=O)Cc3ccccc3)cc2C1=O	-1	-2[16.7 µM]
C[C@H](CO)N1C[C@H](C)[C@H](CN(C)Cc2ccc3c(c2)OCO3)OCCCC[C@H](C)Oc2ccc(NC(=O)Nc3ccc(C(F)(F)F)cc3)cc2C1=O	8	61*[16.7 µM]
C[C@H]1CN([C@@H](C)CO)C(=O)Cc2cc(NS(=O)(=O)c3cccs3)ccc2O[C@H]1CN(C)C(=O)Nc1ccc2c(c1)OCO2	18	-5[16.7 µM]
C[C@@H]1CCCCO[C@H](CN(C)C(=O)CCC(F)(F)F)[C@@H](C)CN([C@@H](C)CO)C(=O)c2cc(N(C)C)ccc2O1	8	-1[16.7 µM]
COc1ccccc1-c1cnc2c(c1)C(=O)N([C@H](C)CO)C[C@@H](C)[C@H](CN(C)Cc1ccc(C(=O)O)cc1)O2	-9	-16[16.7 µM]

smiles	Yeast UUG start	HIV Env fusion
CC(C)CC#Cc1cnc2c(c1)C(=O)N([C@H](C)CO)C[C@H](C)[C@H](CN(C)C(=O)c1cnccn1)O2	4	-19[16.7 µM]
N#C[C@@H]1[C@@H](c2ccccc2)[C@@H](CO)N1C(=O)c1cccnc1	-12	-7[16.7 µM]
Cc1noc(C)c1NC(=O)Nc1ccc2c(c1)C(=O)N(C)[C@H]1CC[C@@H](CC(=O)N(C)C)O[C@H]1CO2	-3	8[16.7 µM]
CN(C)CCCNC(=O)C[C@H]1CC[C@H]2[C@@H](COC[C@H](O)CN2CC2CCCC2)O1	-4	u
C[C@@H]1CN([C@@H](C)CO)C(=O)Cc2cc(NC(=O)CCC(F)(F)F)ccc2O[C@@H]1CN(C)C(=O)NC1CCCCC1	35	9[16.7 µM]
CCNC(=O)C[C@@H]1CC[C@H](NC(=O)C2CCOCC2)[C@H](CO)O1	-7	7[16.7 µM]
C[C@@H]1CN([C@@H](C)CO)S(=O)(=O)c2ccc(-c3cccc(C#N)c3)cc2O[C@H]1CN(C)C(=O)c1cccnc1	-11	24[16.7 µM]
Cc1cc(C(=O)Nc2ccc3c(c2)C(=O)N(C)[C@H]2CC[C@@H](CC(=O)N[C@H](C)c4ccccc4)O[C@@H]2CO3)no1	14	20[16.7 µM]

smiles	Yeast UUG start	HIV Env fusion
O=C(C[C@H]1CC[C@@H](NC(=O)c2cccc(F)c2)[C@@H](CO)O1)NCc1ccccc1	-27	11[16.7 µM]
CC(=O)N(C)C[C@@H]1Oc2ncc(C#Cc3ccccn3)cc2C(=O)N([C@H](C)CO)C[C@H]1C	11	1[16.7 µM]
CN1CCN(C(=O)C[C@H]2CC[C@@H]3[C@H](COc4ccc(NC(=O)C5CC5)cc4C(=O)N3C)O2)CC1	-1	-18[16.7 µM]
C[C@H](CO)N1C[C@H](C)[C@H](CN(C)C(=O)Cc2cccnc2)Oc2ncc(C#CC3(O)CCCC3)cc2C1=O	-11	-12[16.7 µM]
COc1ccc(S(=O)(=O)Nc2ccc3c(c2)C(=O)N([C@H](C)CO)C[C@H](C)[C@H](CN(C)C(=O)CCC(F)(F)F)OCCCC[C@H](C)O3)cc1	4	-13[16.7 µM]
C[C@H]1CN([C@@H](C)CO)C(=O)Cc2cc(NC(=O)C3CC3)ccc2O[C@H]1CN(C)CC1CCCCC1	-14	-4[16.7 µM]
C[C@@H]1CN([C@H](C)CO)C(=O)Cc2cc(NC(=O)C3CC3)ccc2O[C@H]1CN(C)C(=O)Nc1ccc2c(c1)OCO2	12	10[16.7 µM]
CNC(=O)C[C@H]1CC[C@H]2[C@@H](COc3ccc(NC(=O)c4cnccn4)cc3C(=O)N2C)O1	-3	-18[16.7 µM]

smiles	Yeast UUG start	HIV Env fusion
O=C(C[C@@H]1C[C@H]2c3cc(NC(=O)Nc4ccccc4F)ccc3O[C@H]2[C@H](CO)O1)NCc1ccccn1	-18	3[16.7 µM]
C[C@@H]1CN([C@@H](C)CO)S(=O)(=O)c2ccc(-c3ccncc3)cc2O[C@H]1CN(C)Cc1ccccc1	15	15[16.7 µM]
Cc1noc(C)c1NC(=O)Nc1ccc2c(c1)C(=O)N([C@H](C)CO)C[C@@H](C)[C@H](CN(C)C)OCCCC[C@@H](C)O2	56	3[16.7 µM]
C[C@H]1CCCCO[C@H](CN(C)C(=O)Cc2ccccc2)[C@@H](C)CN([C@@H](C)CO)C(=O)c2cc(NC(=O)C3CCCCC3)ccc2O1	10	4[16.7 µM]
COc1ccc(NC(=O)N(C)C[C@H]2Oc3ccc(NS(=O)(=O)c4cccs4)cc3CC(=O)N([C@@H](C)CO)C[C@@H]2C)cc1	-1	10[16.7 µM]
COc1ccc(NC(=O)N(C)C[C@H]2Oc3ccc(NC(=O)Cn4cnnn4)cc3CC(=O)N([C@H](C)CO)C[C@H]2C)cc1	9	11[16.7 µM]
CCCC#Cc1ccc2c(c1)O[C@H](CN(C)Cc1cccnc1)[C@@H](C)CN([C@H](C)CO)S2(=O)=O	-12	-5[16.7 µM]
Cc1noc(C)c1NC(=O)N(C)C[C@@H]1Oc2ccc(N(C)C)cc2C(=O)N([C@H](C)CO)C[C@@H]1C	19	1[16.7 µM]

smiles	Yeast UUG start	HIV Env fusion
C[C@@H]1CN([C@H](C)CO)C(=O)c2cc(C#Cc3ccc(F)cc3)cnc2O[C@@H]1CN(C)S(C)(=O)=O	-1	-18[16.7 µM]
C[C@@H]1CCCCO[C@H](CN(C)S(=O)(=O)c2ccccc2)[C@@H](C)CN([C@@H](C)CO)C(=O)c2cc(NC(=O)Nc3ccc(C(F)(F)F)cc3)ccc2O1	-9	2[16.7 µM]
C[C@@H]1CCCCO[C@@H](CN(C)Cc2ccccc2)[C@@H](C)CN([C@@H](C)CO)C(=O)c2cc(NC(=O)Nc3ccccc3)ccc2O1	13	-17[16.7 µM]
C[C@@H]1CN([C@@H](C)CO)C(=O)Cc2cc(NC(=O)Nc3cccc4ccccc34)ccc2O[C@H]1CN(C)S(=O)(=O)c1ccccc1	-4	5[16.7 µM]
C[C@@H]1CN([C@@H](C)CO)C(=O)c2cc(C#CC(C)(C)O)cnc2O[C@H]1CN(C)Cc1cncnc1	2	-2[16.7 µM]
CCCNC(=O)N(C)C[C@@H]1Oc2cc(C#CC3CC3)ccc2S(=O)(=O)N([C@H](C)CO)C[C@@H]1C	-9	15[16.7 µM]
C[C@H]1CN([C@@H](C)CO)C(=O)c2cc(C3=CCCCC3)cnc2O[C@@H]1CN(C)C(=O)Nc1cccc(F)c1	0	-52[16.7 µM]
C[C@@H]1CN([C@H](C)CO)S(=O)(=O)c2ccc(-c3ccccc3)cc2O[C@@H]1CN(C)C(=O)Cc1ccccc1	21	-50[16.7 µM]

smiles	Yeast UUG start	HIV Env fusion
C[C@@H]1CCCCO[C@@H](CN(C)Cc2ccccc2)[C@@H](C)CN([C@H](C)CO)C(=O)c2cc(NC(=O)Nc3ccc(F)cc3)ccc2O1	-9	-10[16.7 µM]
COCC(=O)N(C)C[C@H]1Oc2ncc(C#Cc3ccc(OC)cc3)cc2C(=O)N([C@H](C)CO)C[C@@H]1C	18	1[16.7 µM]
O=C(O)C[C@H]1CC[C@H](NC(=O)Nc2ccccc2)[C@H](CO)O1	2	-1[16.7 µM]
COc1ccc(S(=O)(=O)N(C)C[C@@H]2Oc3c(NS(=O)(=O)c4cn(C)cn4)cccc3C(=O)N([C@H](C)CO)C[C@@H]2C)cc1	-7	-20[16.7 µM]
CCCC#Cc1ccc2c(c1)O[C@@H](CN(C)C(=O)c1cccnc1)[C@H](C)CN([C@H](C)CO)S2(=O)=O	16	23[16.7 µM]

# Screening data from PubChem.
